Bioassay records (PubChem)
GIRK2 act: activators of human GIRK2 potassium channels. AID 1259325, 2017. G protein-activated inward rectifier potassium channel 2 (Homo sapiens), P48051. HEK293-GIRK2 thallium flux, Thallos fluorescence. calls only for hits at 25 µM. 63,000 tested, 0.05% active;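 active = among the strongest 0.2% of first-round signals and kept after retests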;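 note: first round at about 10 µM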
Target sequence (P48051 whole entry, looked up): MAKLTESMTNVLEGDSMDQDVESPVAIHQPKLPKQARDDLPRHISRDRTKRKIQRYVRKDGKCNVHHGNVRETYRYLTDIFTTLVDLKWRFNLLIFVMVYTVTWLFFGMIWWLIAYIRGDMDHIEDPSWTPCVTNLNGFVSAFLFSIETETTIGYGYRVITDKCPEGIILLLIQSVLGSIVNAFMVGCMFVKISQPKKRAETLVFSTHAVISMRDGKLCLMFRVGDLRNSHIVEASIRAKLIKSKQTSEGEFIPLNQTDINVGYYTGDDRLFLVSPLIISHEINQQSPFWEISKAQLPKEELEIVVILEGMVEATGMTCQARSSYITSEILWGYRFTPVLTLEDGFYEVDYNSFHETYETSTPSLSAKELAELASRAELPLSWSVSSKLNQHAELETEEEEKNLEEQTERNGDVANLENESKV
Calls only; i = inactive; + = active, no number. A portion of the library; count on the stated rates, not on these rows.

GIRK2 act | mol
i | O=C1C2N=NN(Cc3nc(-c4ccc(Cl)cc4)no3)C2C(=O)N1c1ccc2c(c1)CCC2 (stereo not given)
i | COc1ccc(C2c3cccn3CCN2S(=O)(=O)c2ccc(F)cc2)cc1OC (stereo not given)
i | Cc1cccc(Nc2nc(-c3ccncc3)cs2)c1
i | CCOC(=O)c1c(-c2cccs2)csc1NC(=O)CN1CCCCC1C (stereo not given)
i | Cn1nc(CNS(=O)(=O)c2ccccc2F)cc1-c1ccncc1
i | COc1ccc(OC)c(NC(=O)c2cc3c(=O)n(C)c(=O)n(C)c3n2Cc2ccccc2)c1
i | CC1CN(Cc2ccccc2)c2nc3c(c(=O)n(CCN4CCOCC4)c(=O)n3C)n2C1 (stereo not given)
i | C=C1CC[C@@H]2C(C)(C)[C@H](O)CC[C@@]2(C)[C@@H]1COc1ccc2ccc(=O)oc2c1
i | O=C1N(c2ccc([N+](=O)[O-])cc2)C2CS(=O)(=O)CC2N1c1cccc(C(F)(F)F)c1 (stereo not given)
i | COc1cc(NC(=O)Cn2cccc(S(=O)(=O)N3CCC(C)CC3)c2=O)cc(OC)c1
i | O=C(NCc1ccc(Cl)cc1)Nc1cc(N2CCCCC2)ncn1
i | COc1cc(S(=O)(=O)NCCN2CCOCC2)c(OC)cc1Cl
i | N#Cc1ccc(C(=O)NC2CCN(C(=O)c3cc(-c4cccc(Cl)c4)n[nH]3)CC2)cc1
i | CC(=O)N1N=C(c2ccccc2NS(C)(=O)=O)CC1c1ccc(O)cc1 (stereo not given)
i | O=C(CCCSc1ccc(NC(=O)c2ccc(F)cc2)nn1)Nc1nccs1
i | O=C(Cn1c(=O)[nH]c2ccccc2c1=O)NCC1CCS(=O)(=O)C1 (stereo not given)
i | Cn1ccnc1SCC1CCN(S(=O)(=O)CCN2C(=O)CCCC2=O)CC1
i | Cc1c(Cl)cccc1NC(=O)C(C)Oc1cccc(Br)c1 (stereo not given)
i | Cc1nc(C)c(-c2nnc(NC(=O)c3ccc(S(=O)(=O)N4CCOCC4)cc3)o2)s1
i | CC1=C(C(=O)Nc2ccccc2)C(c2ccc(O)cc2)n2nc(C)nc2N1 (stereo not given)
i | COc1ccc2c(=O)c(-c3ccc(Cl)cc3)c(N)oc2c1
i | COc1ccccc1NC(=O)Cn1c(C)cc(C)c(C#N)c1=O
i | COc1ccc(Br)c(C(=O)N2CC(Oc3nc4ccccc4s3)C2)c1
i | CC(=O)Nc1ccc(S(=O)(=O)NCCN2CCN(c3ccc(F)cc3)CC2)cc1
i | COCCNC(=O)c1nnn(-c2ccc(NC(=O)Cc3ccc(F)cc3)cc2)n1
i | CCOc1ccc(NC(=O)Cn2cc(S(=O)(=O)c3ccccc3)c(=O)c3cc(F)ccc32)cc1
i | CC(C)(C)c1cc(N2CCOCC2)n2ncc(-c3ccccc3Cl)c2n1
i | O=C(Cc1cccc2ccccc12)NCC1CCN(C(=O)c2ccoc2)CC1
i | Cc1nnc(C2CCN(S(=O)(=O)c3ccc(Br)s3)CC2)s1
i | CCOc1ccc(CC(=O)NCCC(O)c2cc(C)oc2C)cc1 (stereo not given)
i | Cc1cccc(NC(=O)c2cccc(S(=O)(=O)N3CCOCC3)c2)c1
i | N#Cc1nc(-c2ccccc2)oc1N1CCN(C(=O)c2ccccc2Cl)CC1
i | COCCNC(=O)Cc1csc(Nc2ncccn2)n1
i | COc1cccc2c1OC1(C)CC2NC(=S)N1c1ccccc1F (stereo not given)
i | Cn1cc(-c2nc(-c3ccc4c(c3)OCO4)no2)c(=O)c2cc(F)c(N3CCOCC3)cc21
i | O=C(Cc1cccs1)NCCCS(=O)(=O)N1CCN(c2ccc(F)cc2)CC1
i | Cc1cc(C)n(-c2nc(CCNS(=O)(=O)c3ccc4c(c3)CCCC4)cs2)n1
i | CCOc1ccc(/C=C/c2nc(C#N)c(N3CCN(C(=O)c4ccccc4F)CC3)o2)cc1
i | COc1ccccc1-c1cc(C(=O)NCc2sc(-c3ccccc3Cl)nc2C)[nH]n1
i | COc1cccc(N2CC(C(=O)Nc3nnc(-c4cc(C)oc4C)o3)CC2=O)c1 (stereo not given)
i | CC(C)c1ccc2oc(=O)cc(CN3CCN(c4ccccc4)CC3)c2c1
i | CC(=O)Nc1ccc2c(c1)CCN2C(=O)C1CC1
i | O=C(CCc1c[nH]c2ccccc12)NCCn1ncccc1=O
i | O=C(Oc1ccc(/C=C/c2ccncc2)cc1)c1ccco1
i | O=C(NCCOc1ccccc1)c1cccc(Cl)c1
i | CCOC(=O)c1ccccc1NC(=O)C(C)n1nc(-n2cccn2)ccc1=O (stereo not given)
i | CN(C)C(=O)O[C@H]1CN[C@H](C#Cc2cc3ncnc(Nc4ccc(OCc5cccc(F)c5)c(Cl)c4)c3s2)C1
i | CCOc1ccccc1-c1noc(Cn2cnc3c(nnn3-c3ccc(F)cc3)c2=O)n1

Given comma-delimited: entries from further up.
SMILES,GIRK2 act
CC(C)c1ccc2oc(=O)cc(CN3CCN(c4ccccc4)CC3)c2c1,i
CC(=O)Nc1ccc2c(c1)CCN2C(=O)C1CC1,i
O=C(CCc1c[nH]c2ccccc12)NCCn1ncccc1=O,i

More structures follow:
GIRK2 act | mol
i | Cc1cc(SCC(=O)Nc2ccc(O)cc2)n2nc(C)c(-c3ccccc3)c2n1
i | COc1ccccc1N1CCN(C(=O)c2cc(=O)c(OCc3ccccc3)co2)CC1
i | CCCCn1cc(S(=O)(=O)c2ccc(C)cc2)c(=O)c2cc(F)c(N3CCCC3)cc21
i | O=C(NCc1ccco1)c1nnn(-c2ccc(F)cc2)c1-c1ccncc1
i | COc1ccc(NC(=O)Cn2ccn(Cc3ccccc3)c(=O)c2=O)cc1OC
i | CCOC(=O)c1ccc(-n2c(C)cn3c4c(=O)n(Cc5ccccc5)c(=O)n(C)c4nc23)cc1
i | CC(C)NC(=O)c1nnn(-c2cccc(C(F)(F)F)c2)c1N
i | CCOC(=O)Cc1csc(NC(=O)Cn2ccc3ccccc32)n1
i | COc1ccc(C(=O)Nc2nc(-c3cc4ccccc4o3)cs2)cc1OC
i | COc1cccc(NC(=O)c2cnc3c(c(C)nn3-c3ccccc3)c2Cl)c1
i | O=C(CC(c1ccccc1)c1ccccc1)N1CCN(c2ccc(-n3ccnc3)nn2)CC1
i | NS(=O)(=O)c1ccc(N=Nc2c(=O)[nH]c3ccc4[nH]cccc4c23)cc1
i | COc1cccc(NCCn2c(C)c(C)n3c4c(=O)n(C)c(=O)n(C)c4nc23)c1
i | CS(=O)(=O)c1ccccc1NC(=O)C12CC3CC(CC(C3)C1)C2
i | CC(=O)N1CCc2c(sc(NC(=O)c3ccccc3C)c2-c2nc3ccccc3s2)C1
i | O=C(CCn1nnc2ccccc2c1=O)Nc1ccc(C(F)(F)F)cc1
i | COCCNC(=O)N1CC(c2nc(C3CC3)no2)C1
i | O=C(OC1CN(c2nc3ccc(F)cc3s2)C1)c1c(F)cccc1F
i | COc1ccc(/C=C\c2cc(OC)c(OC)c(OC)c2)cc1O
i | O=C(c1ccc(Cn2c(=O)[nH]c3ccccc3c2=O)cc1)N1CCc2ccccc2C1
i | COc1ccc(CCC(=O)O)cc1
i | Cc1cc(C(=O)NCC(O)C2CCCCC2)c(C)o1 (stereo not given)
i | O=C1c2oc3ccccc3c(=O)c2C(c2ccncc2)N1Cc1ccco1 (stereo not given)
i | COc1ccc(OC)c(C2C(C(=O)c3cccs3)=C(O)C(=O)N2Cc2cccnc2)c1 (stereo not given)
i | Cc1nc(Nc2ccc(NC(=O)Nc3ccccc3Cl)cc2)cc(-n2cccn2)n1
i | Cn1c(C2CCN(S(C)(=O)=O)CC2)nn(CC(=O)Nc2ccccc2)c1=O
i | CN1CCc2c(sc(NC(=O)CSc3ccc(F)cc3)c2-c2nc3ccccc3s2)C1
i | CCOc1ccc(S(=O)(=O)N(CCOC)Cc2ccsc2)cc1C
i | Cc1ccccc1C(=O)Nc1cc(-c2cccs2)nn1-c1nc(-c2ccccc2)cc(=O)[nH]1
i | COc1cc(C)c(C)cc1S(=O)(=O)N(CCc1cccs1)Cc1cccnc1
i | CCc1cc(=O)[nH]c(-n2nc(C3CC3)cc2NC(=O)c2cc3ccccc3o2)n1
i | CCOc1ccc2ccccc2c1C(=O)NCCn1cnc(-c2ccccc2)cc1=O
i | COc1ccc(-c2cc(SCC(=O)N3CCc4ccccc43)ncn2)cc1
i | O=C(NCc1ccsc1)c1ccc(S(=O)(=O)N2CCOCC2)cc1
i | COC1(CNS(C)(=O)=O)CCSC1 (stereo not given)
i | COc1ccc(NC(=O)N2CCN(Cc3nnnn3-c3ccccc3)CC2)c(OC)c1
i | COC(=O)c1ccc2c(=O)n(CCCC(=O)NC3CCCCCC3)c(=S)[nH]c2c1
i | Cc1noc(CNC(=O)COc2cccc3c2OC(C)(C)C3)n1
i | Cn1c(=O)[nH]c(=O)c2c1nc1n2CCCN1c1ccc(Oc2ccccc2)cc1
i | COc1cccc(C(=O)CSc2nc3c(sc4ncccc43)c(=O)n2Cc2ccccc2)c1
i | CC(=O)N1CCN(c2nc(N3CCOCC3)nc(-n3ccnc3)n2)CC1
i | O=C(CSc1ncnc2nc[nH]c12)c1ccc2c(c1)OCO2
i | COc1ccc(CNC(=O)Cn2cnc3c(-c4ccc(F)cc4)cn(C)c3c2=O)cc1
i | CC(C)(C)NC(=O)c1csc2nc(-c3ccc(F)cc3)cn12
i | O=C(NCC#CCOc1ccc2c(c1)OCO2)NCc1ccc(Cl)cc1
i | COc1ccccc1CNc1ccc(S(=O)(=O)Cc2ccc(Cl)cc2)nn1
i | CC(C)S(=O)(=O)c1ccc(CC(=O)NCC#CCOc2ccc3c(c2)OCO3)cc1
i | N#Cc1cc(F)ccc1NC(=O)C1CC(=O)Nc2nc3ccccc3n21 (stereo not given)
i | COc1ccccc1-n1ncc2c(C)nnc(SCC(=O)N3CCc4ccccc43)c21
i | CCN(Cc1ccccc1)C(=O)Cn1cccc(S(=O)(=O)N2CCCCCC2)c1=O
+ | COCCCNC(=O)CSc1nc(-c2cccc(F)c2)[nH]c1-c1ccccc1
i | CC(C)Sc1ccc(CC(=O)NCC2CCN(C(C)C)CC2)cc1
i | COc1ccc(CCN2COc3ccc4c(c3C2)O/C(=C\c2ccncc2)C4=O)cc1OC
i | COc1cc(OC)c(NC(=O)Cn2nc3c(Oc4ccccc4)nccn3c2=O)cc1Cl
i | O=C(/C=C/c1ccccc1Cl)NCc1ccc(C(O)c2cccs2)s1 (stereo not given)
i | Cc1c(C(=O)Nc2nccs2)nnn1-c1ccc2noc(-c3ccc(Cl)cc3)c2c1

An excerpt from above in order of length of the SMILES, low to high.
GIRK2 act | mol
i | O=C(/C=C/c1ccccc1Cl)NCc1ccc(C(O)c2cccs2)s1 (stereo not given)
+ | COCCCNC(=O)CSc1nc(-c2cccc(F)c2)[nH]c1-c1ccccc1
i | CCN(Cc1ccccc1)C(=O)Cn1cccc(S(=O)(=O)N2CCCCCC2)c1=O

Retrieved one by one from the list above (5):
GIRK2 act | mol
i | CC(C)Sc1ccc(CC(=O)NCC2CCN(C(C)C)CC2)cc1
i | Cc1c(C(=O)Nc2nccs2)nnn1-c1ccc2noc(-c3ccc(Cl)cc3)c2c1
i | CCN(Cc1ccccc1)C(=O)Cn1cccc(S(=O)(=O)N2CCCCCC2)c1=O
i | COc1ccc(CCN2COc3ccc4c(c3C2)O/C(=C\c2ccncc2)C4=O)cc1OC
i | O=C(/C=C/c1ccccc1Cl)NCc1ccc(C(O)c2cccs2)s1 (stereo not given)

Further structures
GIRK2 act | mol
i | CCCCc1ccc(S(=O)(=O)c2cnc(SCC(=O)NCCc3ccccc3)[nH]c2=O)cc1
i | CCOc1ccc(NC(=O)Cn2cnc3c([nH]c4cc(OC)c(OC)cc43)c2=O)cc1
i | O=S(=O)(NCCc1csc(-c2ccc(F)cc2)n1)c1ccc(N2CCCCS2(=O)=O)cc1
i | COc1ccc(-c2c(C)oc3c4c(ccc3c2=O)OCN(CC2CCCO2)C4)cc1 (stereo not given)
i | CCOc1ccc(S(=O)(=O)Nc2ccc3c(c2)N(S(=O)(=O)CC)CCC3)cc1C
i | Cc1c(C(=O)N2CCN(Cc3nc(C(C)(C)C)cs3)CC2)cccc1[N+](=O)[O-]
i | COc1ccc2sc(OC3CCN(C(=O)Nc4ccc(C)c(C)c4)CC3)nc2c1
i | O=C(NCc1ccc2c(c1)OCO2)C(=O)NCC1(O)CCOc2ccccc21 (stereo not given)
i | COc1ccc(OC)c(CNC(=O)c2nnn(-c3ccc(C)c(C)c3)c2-c2cccnc2)c1
i | CN(CCO)C(=O)c1csc(-c2cc3ccccc3[nH]2)n1
i | CCc1cnc2c(c1NCCc1ccc(S(N)(=O)=O)cc1)c(=O)n(C)c(=O)n2C
i | Cc1cc(N2C(=O)C(=O)C(=C(O)c3ccc(OC(C)C)cc3)C2c2cccs2)no1 (stereo not given)
i | O=C(CCc1ccccc1)Nc1cc(-c2ccco2)nn1-c1nc(-c2ccccc2)cc(=O)[nH]1
i | CCOC(=O)Cn1c(=O)c2c(nc3n(-c4cccc(C)c4)c(-c4ccccc4)cn23)n(C)c1=O
i | Cn1nc(-c2ccc(F)cc2)cc1C(=O)NCC#CCN1CCCC1
i | CC1(C)O[C@@H]2C[C@H]3[C@@H]4C[C@H](F)C5=CC(=O)C=C[C@]5(C)[C@H]4[C@@H](O)C[C@]3(C)[C@]2(C(=O)CO)O1
i | CS(=O)(=O)Nc1ccc2c(c1)CCCN2S(=O)(=O)c1ccc(F)cc1
i | COc1cccc2c1C(=O)c1c(O)c3c(c(O)c1C2=O)C[C@@](O)(C(=O)CO)C[C@@H]3O[C@H]1C[C@H](N)[C@@H](O)[C@H](C)O1
i | COc1cccc(-c2cc(C(=O)N3CCN(C4CCCCC4)CC3)[nH]n2)c1
i | N#Cc1cccc(N2Cc3cc(Br)ccc3OCC2=O)c1
i | CCN1CCc2c(OCC(=O)NC3CCCCC3)cccc2C1=O
i | CCOCC(=O)N(Cc1cccs1)Cc1cccn1C
